# Bioassay records as filed in PubChem.
# E coli growth – inhibitors of Escherichia coli growth; OD600, 23 h; stronger effect = lower value; OD600 absorbance (concentration not given with the values); actives 0.21% (n = 330,000); AID 1053175;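 active means OD600 absorbance below the run mean of sample wells minus 3.6 SD, in any replicate, cut at about 0.56 in these data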;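 further: stock transfer was 300 nL into about 60 µL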
# UCH37 DUB inh – inhibitors of human deubiquitinating enzyme UCH37; Q9Y5K5; purified proteasome/UCH37, Ub-AMC cleavage fluorescence; inhibition, % (test concentration not listed); actives 0.33% (n = 330,000); AID 588478;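 active means mean of two replicates above 20%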;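 further: 0% = compound-free wells with enzyme and 100% = wells lacking proteasome; stock transfer was 100 nL into about 20 µL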
# Target sequence (Q9Y5K5 whole entry, looked up): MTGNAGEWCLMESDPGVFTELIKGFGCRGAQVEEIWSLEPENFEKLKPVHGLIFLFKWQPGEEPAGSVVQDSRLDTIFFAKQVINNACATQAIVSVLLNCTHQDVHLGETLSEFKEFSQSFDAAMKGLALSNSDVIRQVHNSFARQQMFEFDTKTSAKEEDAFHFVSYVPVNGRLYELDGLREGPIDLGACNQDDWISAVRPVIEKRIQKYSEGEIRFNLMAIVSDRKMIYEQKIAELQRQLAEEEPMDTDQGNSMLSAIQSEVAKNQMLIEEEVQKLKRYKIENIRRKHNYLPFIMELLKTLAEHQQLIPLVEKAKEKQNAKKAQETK
#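 Schedule: 30 min plus 25 min, room temperature / Material: human UCH37 within purified proteasomes / Technique: AMC fluorescence intensity at 355/460 nm / Buffer or medium: pH 7.4 Tris-HCl (50 mM) with ovalbumin, ATP-MgCl2, DTT / Controls: wells without proteasome as full block, compound-free enzyme plus substrate as uninhibited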
# HNF4A DNA FP – change in binding of human HNF4 alpha to DNA. P41235. HNF4a-FITC DNA binding, fluorescence polarization, 1 h. activity change, % at 10 µM. actives 0.3% (n = 360,000); in the data active means activity change above about 30%, passing the limit was not always enough;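 further: controls were the assay level and a saturating level of protein; the project sought stronger binding though the title names inhibitors; some compounds called inactive have numbers as strong as hits; positive values seem to mean higher polarization but the record does not say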
# Target sequence (P41235 whole entry, looked up): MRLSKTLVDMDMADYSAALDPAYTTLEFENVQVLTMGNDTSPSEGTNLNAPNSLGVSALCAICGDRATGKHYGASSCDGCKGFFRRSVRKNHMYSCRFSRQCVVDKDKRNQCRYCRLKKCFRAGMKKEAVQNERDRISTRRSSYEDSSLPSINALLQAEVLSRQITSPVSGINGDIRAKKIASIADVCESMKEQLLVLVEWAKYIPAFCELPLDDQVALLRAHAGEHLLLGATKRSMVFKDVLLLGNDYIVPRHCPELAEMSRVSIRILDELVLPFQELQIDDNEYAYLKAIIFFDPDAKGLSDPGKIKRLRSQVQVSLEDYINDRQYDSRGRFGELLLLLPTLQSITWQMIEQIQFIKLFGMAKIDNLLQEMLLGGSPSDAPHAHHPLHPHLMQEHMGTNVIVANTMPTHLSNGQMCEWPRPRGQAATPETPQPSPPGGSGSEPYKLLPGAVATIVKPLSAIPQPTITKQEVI
# rRNA inh HTS – inhibits bacterial ribosomal RNA function over humanized ribosomes; E. coli WT GFP vs humanized-ribosome RFP mutants, fluorescence, 24 h; stronger effect = lower value; DMSO median 0, no signal -100; GFP signal change (wild-type ribosome), % (concentration not given with the values); actives 1.6% (n = 350,000); AID 720706;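 active means significant combined selectivity score with lowered wild-type GFP, culture density cut under 30%, mutant RFP and density less affected; inactive means any of these conditions unmet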; further: one replicate is shown; some compounds called inactive have numbers as strong as hits
# FGF22 binding – binders of recombinant human FGF22 by thermal shift | Q9HCT0 | SYPRO orange fluorescence; percent of sucrose octasulfate shift, DMSO zero | calls only at 9.99 µM | actives 1.5% (n = 340,000) | AID 651658;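 active means melting point raised past a set limit in the mean and every replicate; three in four hits are not shown here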
# Beta2AR agonist – activates human beta-2 adrenergic receptor causing internalization; AID 504454; actives 0.43% (n = 340,000); Am2.2-beta2AR cells, FAP receptor internalization, flow cytometry; reference of the scale not given here; P07550; response, % (concentration not given with the values);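 active means response above a set limit, near 3 SD of response in nonfluorescent compounds, cut at about 42% in these data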;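 further: stock transfer was 100 nL into about 11 µL; a reference agonist was the positive control; negative values mostly stem from fluorescent compounds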
# ALR inh – inhibitors of human sulfhydryl oxidase ALR; P55789; purified ALR, DTT oxidation, H2O2 HRP-luminol luminescence; inhibition, % (no concentration beside the values); actives 3.8% (n = 290,000); AID 485317;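 active means mean and each replicate at 75% or more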;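 further: stock transfer was 7.5 nL into about 7.5 µL; 0% = neutral wells and 100% = wells with inactivated enzyme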
# Target sequence (P55789 whole entry, looked up): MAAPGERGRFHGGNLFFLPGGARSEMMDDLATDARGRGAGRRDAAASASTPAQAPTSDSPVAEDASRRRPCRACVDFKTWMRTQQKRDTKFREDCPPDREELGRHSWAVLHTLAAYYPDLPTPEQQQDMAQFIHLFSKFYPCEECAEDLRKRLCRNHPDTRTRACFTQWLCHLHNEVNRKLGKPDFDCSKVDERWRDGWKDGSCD
# rRNA inh HTS OD600 – also measured in rRNA inh HTS; calls as there; OD600 change, %; measured here: OD600 growth;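 optical density of the mix in the first replicate; 0 = DMSO median and -100 = no signal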
# rRNA inh HTS RFP – second read-out of rRNA inh HTS, no call of its own (marks repeat the call); RFP signal change, %; measured here: RFP humanized mutant strains;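 first replicate; 0 = DMSO median and -100 = no signal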
# Starred values were filed as active, the others as inactive; i = inactive; . = not tested or not shown.
SMILES,E coli growth,UCH37 DUB inh,HNF4A DNA FP,rRNA inh HTS,rRNA inh HTS OD600,rRNA inh HTS RFP,FGF22 binding,Beta2AR agonist,ALR inh
O=C(c1cc(COc2ccc3ncccc3c2)on1)N1CCCC1,0.65,0.0,2.0,-24*,-19*,-7.6*,i,0,-22
COc1ccc(N(CC(=O)NCc2ccc(C)cc2)S(=O)(=O)c2ccccc2[N+](=O)[O-])c(OC)c1,0.74,2.5,2.8,-18,-15,-3.5,i,-9,-29
CC1(C(=O)NCc2ccc3c(c2)OCO3)CCN1C(=O)Cc1cccs1 (stereo not drawn),.,.,1.4,7,3,2.1,i,.,.
CCn1ccc(C(=O)NC2C(=O)N3C(C(=O)O)=C(C)CSC23)n1 (stereo not drawn),0.72,6.8,1.0,.,.,.,.,9,7
Cc1ccc(S(C)(=O)=O)cc1S(=O)(=O)Nc1ccccc1,0.71,4.4,-2.1,.,.,.,.,-3,-2
O=C1/C(=C/c2ccccn2)SC(=S)N1Nc1ncc(C(F)(F)F)cc1Cl,0.68,4.6,-2.0,-6,-15,3.5,i,-7,.
CC1CN(C(=O)COC(=O)c2cc(Cl)ccc2Cl)CC(C)O1 (stereo not drawn),0.71,4.7,-1.5,14,7,-0.8,i,-2,-14
CN(C)CCCn1c(SCC(=O)Nc2nccs2)nnc1-c1ccncc1,0.6,1.3,-3.2,0,1,1.9,i,14,1
Cc1nc2cc(C(F)(F)F)ccc2n1C,0.69,-0.3,-0.2,15,9,-0.1,i,1,-10
Cc1ccccc1N(CC(=O)N/N=C/c1ccccc1Cl)C(=O)c1ccccc1,.,.,-1.7,.,.,.,.,10,-5
COc1ccccc1NS(=O)(=O)c1cccc(C(=O)NN=C2CCCCCC2)c1,0.7,1.7,-0.7,.,.,.,.,-3,33
COc1ccc(NC(=S)NNC(=O)COc2ccc(Cl)cc2Cl)cc1,0.7,6.4,2.0,.,.,.,.,-18,60
COc1cccc(NC(=O)N(Cc2ccco2)C(C)c2cccs2)c1 (stereo not drawn),0.65,2.1,-0.7,.,.,.,.,-5,-9
CC1CC(=O)N(c2ccc(NCCc3ccccc3)c([N+](=O)[O-])c2)C1=O (stereo not drawn),0.69,7.4,-1.9,5,-7,0.6,i,0,.
Cc1cccc(C)c1NC(=O)C(c1ccnc2ccccc12)n1c(=O)c(-c2ccco2)nc2ccccc21 (stereo not drawn),.,.,44*,12,21,1.0,i,.,.
CNc1nc(-c2ccccc2)nc(-c2ccc(OC)cc2)c1C#N,0.74,-16,0.3,16,16,-0.4,i,2,-7
O=C(CSc1nc2ccccc2c(=O)[nH]1)Nc1ccc(N2CCOCC2)cc1,0.71,3.0,-2.2,2,5,0.8,i,3,-6
CCN(c1ccc(OC)cc1)S(=O)(=O)c1ccc2c(c1)CCN2C(=O)CCC(=O)O,0.62,2.6,2.2,0,1,-2.2,.,-9,-2
NC(=O)CCn1c2ccccc2c2ccccc21,0.68,1.1,0.0,-2,-17,-1.0,.,-3,-8
O=C(O)C1CCCN1C(=O)NC1CCCCC1 (stereo not drawn),0.66,4.3,-2.6,11,26,7.6,i,6,-2

# Records listed above that bear a hit mark in HNF4A DNA FP.
SMILES,E coli growth,UCH37 DUB inh,HNF4A DNA FP,rRNA inh HTS,rRNA inh HTS OD600,rRNA inh HTS RFP,FGF22 binding,Beta2AR agonist,ALR inh
Cc1cccc(C)c1NC(=O)C(c1ccnc2ccccc12)n1c(=O)c(-c2ccco2)nc2ccccc21 (stereo not drawn),.,.,44*,12,21,1.0,i,.,.

# The listing picks up, starting 3 compounds before the break.
SMILES,E coli growth,UCH37 DUB inh,HNF4A DNA FP,rRNA inh HTS,rRNA inh HTS OD600,rRNA inh HTS RFP,FGF22 binding,Beta2AR agonist,ALR inh
CCN(c1ccc(OC)cc1)S(=O)(=O)c1ccc2c(c1)CCN2C(=O)CCC(=O)O,0.62,2.6,2.2,0,1,-2.2,.,-9,-2
NC(=O)CCn1c2ccccc2c2ccccc21,0.68,1.1,0.0,-2,-17,-1.0,.,-3,-8
O=C(O)C1CCCN1C(=O)NC1CCCCC1 (stereo not drawn),0.66,4.3,-2.6,11,26,7.6,i,6,-2
Cc1ccc(S(=O)(=O)n2c(N)nc3cc(C)c(C)cc32)cc1,.,.,2.2,-1,8,-1.1,i,.,.
CCOC(=O)Cn1cc(/C=C(/C#N)C(=O)NC(C)C)c2ccccc21,0.67,2.3,-2.2,-9,3,-4.1,i,8,-9
COC(=O)[C@@]12C[C@@H](CC(=O)NCCCCc3ccccc3)C(=O)N(Cc3ccc4c(c3)OCO4)C1=CCC(C)(C)C2,.,.,0.7,7,10,-0.4,i,.,.
CSCCC(NC(N)=O)C(=O)NCc1ccc(Cl)cc1 (stereo not drawn),0.69,0.8,6.9,.,.,.,.,-3,4
CCCCC(=O)NC(Nc1cc(C)ccn1)(C(=O)OCC)C(F)(F)F (stereo not drawn),0.68,0.7,-2.9,.,.,.,.,0,9
Cc1ccc(OCCNC(=O)CN2C(=O)NC3(CCCC3)C2=O)cc1,0.7,-0.4,0.0,10,10,-1.5,i,0,-6
Cc1cc(C)cc(NC(=O)/C(C#N)=C/c2cn(CC(=O)NCc3ccco3)c3ccccc23)c1,0.73,-162,-0.8,.,.,.,.,4,.
CCN=C(NCC)SC1CC(=O)N(c2cccc(OCC)c2)C1=O (stereo not drawn),0.75,3.3,2.2,.,.,.,.,0,1
Cc1onc(-c2ccccc2)c1C(=O)NCCSCc1ccco1,0.68,1.6,-3.0,-1,-12,-1.1,i,-2,-6
O=C(OCC(=O)N1CCN(c2ccccc2)CC1)C1CCCN1S(=O)(=O)c1ccc(Cl)cc1 (stereo not drawn),0.72,3.2,1.9,-5,-5,4.3,i,6,.
CCOC(=O)C1CCN(C(=O)CCNC(=O)c2cc(OC)c(OC)c(OC)c2)CC1,0.68,1.1,-2.8,.,.,.,.,3,-6
COCCn1cnc2c1c(=O)n(Cc1cc(C(C)=O)ccc1OC)c(=O)n2Cc1ccccc1,0.64,-3.2,4.0,6,11,0.0,i,-7,2
CCOC(=O)N1CCN(C2CC(=O)N(c3ccccc3)C2=O)CC1 (stereo not drawn),0.7,0.1,-5.3,6,3,-1.8,.,-5,-1
CC(OC(=O)CCN=C1NS(=O)(=O)c2ccccc21)C(=O)N(C)C1CCCCC1 (stereo not drawn),0.64,-0.4,0.7,-1,1,-1.7,.,-3,.
COc1ccccc1OCC(=O)Nc1ccccc1C(=O)N1CCCCC1,0.65,1.9,-7.1,5,0,-2.8,i,5,-12
CCOC(=O)/C(C#N)=C/Nc1cc(F)ccc1C,0.64,1.8,-3.0,.,.,.,i,4,-11
Cc1nsc(Nc2ccccc2)c1C#N,0.67,3.7,0.1,22,18,-2.5,i,8,2
CN(C)CCCNC(=O)c1cc(C(=O)c2ccc(F)cc2)c[nH]1,0.7,5.4,1.1,8,8,-0.5,i,-3,3
Cc1cn(C2CCCCO2)c(=O)nc1NO (stereo not drawn),.,.,-2.4,20,21,-0.5,i,1,.
CC(=O)N(c1c(C)n(C)n(-c2ccccc2)c1=O)C1(C(=O)NC2CCCCC2)CCCCC1,0.67,0.0,-0.1,.,.,.,.,2,-12

# 4 of the compounds above, with values under each structure:
# Order of values: E coli growth	UCH37 DUB inh	HNF4A DNA FP	rRNA inh HTS	rRNA inh HTS OD600	rRNA inh HTS RFP	FGF22 binding	Beta2AR agonist	ALR inh
COc1ccc(NC(=S)NNC(=O)COc2ccc(Cl)cc2Cl)cc1
    0.7	6.4	2.0	.	.	.	.	-18	60
COc1cccc(NC(=O)N(Cc2ccco2)C(C)c2cccs2)c1 (stereo not drawn)
    0.65	2.1	-0.7	.	.	.	.	-5	-9
CC1CC(=O)N(c2ccc(NCCc3ccccc3)c([N+](=O)[O-])c2)C1=O (stereo not drawn)
    0.69	7.4	-1.9	5	-7	0.6	i	0	.
Cc1cccc(C)c1NC(=O)C(c1ccnc2ccccc12)n1c(=O)c(-c2ccco2)nc2ccccc21 (stereo not drawn)
    .	.	44*	12	21	1.0	i	.	.

# The list continues.
SMILES,E coli growth,UCH37 DUB inh,HNF4A DNA FP,rRNA inh HTS,rRNA inh HTS OD600,rRNA inh HTS RFP,FGF22 binding,Beta2AR agonist,ALR inh
c1ccc(SCCCCN2CCOCC2)cc1,0.66,2.2,2.0,16,14,4.1,i,3,4
OC(c1ccc(Cl)c(F)c1)c1ncc(-c2cccc(F)c2)[nH]1 (stereo not drawn),.,.,-0.6,-8,-44,0.0,i,.,.
CN(C)CCN1C(=O)C(O)=C(C(=O)c2cc3ccccc3o2)C1c1cccc(Br)c1 (stereo not drawn),0.71,6.1,-0.4,.,.,.,.,-7,-2
COc1ccccc1NC(=O)CCSc1nnnn1C,0.7,1.2,-1.8,.,.,.,.,0,-5
COc1ccc(S(=O)(=O)NC2CC(=O)N(c3ccccc3)C2)cc1C (stereo not drawn),0.67,3.7,-0.3,4,-2,-0.2,i,-2,2
O=C(NCc1ccc(F)cc1)c1cc(C2CCCCN2S(=O)(=O)c2ccccc2)on1 (stereo not drawn),.,.,3.6,-6,-22,-4.1,i,.,.
CCOCCc1nnc(NC(=O)C2CCN(C(=O)c3ccco3)CC2)s1,0.7,-1.9,0.1,16,18,0.4,i,7,-3
Cc1cc(C)c(C)c(S(=O)(=O)NCC(=O)Nc2ccc(F)cc2)c1C,0.72,2.0,-1.0,-40,-47,-5.1,i,-2,-2
Cc1onc(-c2ccccc2)c1C(=O)NNC(=S)NC(=O)/C=C/c1cccs1,.,.,-4.0,.,.,.,.,-5,48
CCN(C(=O)CSc1nc2ccc(OC)cc2[nH]1)C1CCS(=O)(=O)C1 (stereo not drawn),0.66,4.5,-1.4,1,7,-2.6,.,-10,-1
COC(=O)[C@]12CCCCC=C1N(Cc1ccc3c(c1)OCO3)C(=O)[C@H](CC(=O)N1CCC(c3ccccc3)CC1)C2,.,.,-2.0,3,10,1.7,i,.,.
O=C(c1cc(Br)ccc1OC(F)F)N1CCN2CCCC2C1 (stereo not drawn),0.7,2.6,-0.7,12,10,-0.5,i,4,-11
CCCCC(=O)N(Cc1nc2sc(C)c(C)c2c(=O)[nH]1)C1CCCC1,0.67,2.8,2.3,-4,-3,-2.4,.,-8,-9
C/C(=N/NS(=O)(=O)c1cccc([N+](=O)[O-])c1)c1ccc2c(c1)OCO2,.,.,0.7,13,14,-3.5,i,3,38
Cc1ccc(-c2c(C(=O)N/N=C/c3c[nH]c4ccccc34)nnn2-c2nonc2N)cc1,.,.,2.3,1,-1,0.2,i,11,13
CC(=O)N(Cc1ccccc1)Cc1cn(CCC#N)nc1-c1cccc([N+](=O)[O-])c1,0.69,1.4,0.4,15,9,6.5,i,-6,1
CCCCN(C(=S)NC(=O)c1cc(OC)c(OC)c(OC)c1)c1c(N)n(Cc2ccccc2)c(=O)[nH]c1=O,0.71,5.1,-3.8,3,-2,-4.9,i,4,-18
CCOC(=O)N1CCN(C(=O)C2CCN(C(=O)Nc3ccccc3)CC2)CC1,0.69,1.2,-2.4,2,5,-1.4,i,-2,-2
COc1ccc(-c2nc(NC(=O)C3CC(=O)N(Cc4ccco4)C3)sc2C)cc1 (stereo not drawn),0.66,2.3,-2.3,.,.,.,i,1,.
CC(=O)C1=C(O)C(=O)N(c2ccc(O)cc2)C1c1cccc([N+](=O)[O-])c1 (stereo not drawn),0.65,7.5,-2.5,1,-2,-3.1,.,-2,83*
CC1(c2ccccc2)NC(=O)N(CC(=O)Nc2ccccc2N2CCCC2)C1=O (stereo not drawn),0.67,1.3,2.7,-7,-7,-1.4,i,-2,.

# This is a subset (hit frequency here may not be typical).
